Compound activity as filed in PubChem.
LT uptake inh – anthrax lethal toxin internalization inhibition; Cells, anthrax lethal toxin internalization, FRET ratio (460/530); Potency, µM (titrated, usually from 40 µM), without a hit: top-dose activity change, negative = inhibition, most hits filed as inhibitors; actives 0.67% (n = 70,000); active = well fitted falling ratio curve with the 530 nm signal flat; inconclusive = other ratio curves, or a change in one channel alone; inactive = flat curves in the ratio and both channels; the % refers to the ratio; also: % is scaled to controls: 0 for no effect and ±100 for the full control effect; nearly all actives have a fitted effect of over 50% in size; tested in ME-180 cells; beta-lactamase reporter
Prx2 Sm inh – blocks S. mansoni peroxiredoxin 2 enzymatic activity. S. mansoni Prx2 activity coupled to TGR/GSH (TGR is thioredoxin glutathione reductase), NADPH fluorescence loss, qHTS; some inactives read as strong as hits. Potency, µM. actives 0.07% (n = 65,000). AID 448; active means full or partial inhibition curve with a strong effect at the top dose; inconclusive means weaker partial or single-point curve; inactive means no accepted curve; also: series up to 57 µM; many of its hits are not listed in these tables
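qHTS, coupled TGR/Prx2 format; 15 min compound preincubation at RT; reaction started with H2O2 (2.5 mM aliquot); kinetic NADPH fluorescence decrease, ex 365/em 450 nm.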
An asterisk follows results filed as active; u = inconclusive; x = not tested or not shown; [ ] = remark or other dose. Potency is read from the fitted curve at half-maximal effect. Some of the compounds tested. The share of hits here may be higher or lower than overall.

canonical_smiles | Prx2 Sm inh | LT uptake inh
CCn1nccc1C(=O)NC1=C(C#N)CCC1 | >57 | -4%
O=S(=O)(c1cccc2cccnc12)N1CCOCC1 | >57 | u
O=C(Nc1ccc(N2CCOCC2)cc1)Nc1ccc2nc(-c3ccco3)c(-c3ccco3)nc2c1 | >57 | u
COc1ccc(Br)cc1-c1nc(C)c(C(C)=O)n1O | >57 | 28%
CC(=O)OC[C@@H]1O[C@@H](O/N=C2/C[C@@H](O)[C@@H](O)[C@@H]3[C@H]4C(=O)N(c5ccc(F)cc5F)C(=O)[C@@H]4CC[C@H]23)[C@H](OC(C)=O)[C@H](OC(C)=O)[C@@H]1OC(C)=O | x | -4%[0.064 µM]
COC(=O)c1c(-c2ccncc2)csc1NC(=O)c1ccoc1C | >57 | 9%
C=CCn1c(COc2ccccc2)nnc1SCC(=O)Nc1ccc2c(c1)OCCO2 | >57 | 0%
Nc1[nH]c(=S)[nH]c(=O)c1N=Nc1c(Br)cc(S(N)(=O)=O)cc1Br | >57 | -10%[8 µM]
Oc1ccc(Cl)cc1-c1cc(-c2ccccc2)n[nH]1 | >57 | u
CCC(=O)Nc1nc2ccccc2n1CCN(CC)CC | >57 | -8%
Cn1c(=O)c(C(=O)Nc2ncccc2O)c(O)c2ccccc21 | >57 | 1%
COC(=O)c1cn(CC(=O)NCc2ccco2)c2ccccc12 | >57 | 11%
CCN1C(=O)[C@H]2[C@H]3[C@H](O)[C@H](O)C/C(=N/OCc4ccccc4)[C@H]3CC[C@@H]2C1=O | x | -5%[8 µM]
Cc1nc(N2CCOCC2)[nH]c(=O)c1CCC(C)C | >57 | 0%
CCOC(=O)Nc1cc(C(=O)OCC)c(C)nc1C | >57 | -2%
CCn1c(CC(C)C)n[nH]c1=S | >57 | 1%
COc1ccc(CN(C(=O)c2cccs2)c2nccs2)cc1OC | >57 | u
C[C@@H](CCC(=O)O)C(=O)O | >57 | -9%[8 µM]
CC(C)CC(=O)Nc1cccc(-c2nc3ccccc3o2)c1 | >57 | -17%
COCC(C)n1c(COc2ccccc2F)nnc1SCc1c(C)noc1C (configuration not stated) | >57 | 6%
CC1CC(N(C(=O)c2ccco2)c2ccccc2)c2ccccc2N1 (configuration not stated) | >57 | -30%
Cc1cccc(N2CCN(C(=O)CCn3c(=O)[nH]c4ccccc4c3=O)CC2)c1C | >57 | 2%
CN(c1ccc(OCc2nnc(-c3ccccc3)o2)cc1)S(=O)(=O)c1ccccc1 | >57 | -14%
CCOc1cc(C2NC(=O)NC(O)(C(F)(F)F)C2C(=O)c2ccc(Cl)cc2)ccc1O (configuration not stated) | x | -7%
Cc1ccc(CNC(=O)C2(CC(C)C)C=CCN2C(=O)c2ccccc2)o1 (configuration not stated) | x | -20%
O=C(CSC1CCCCC1)Nc1nccs1 | >57 | -23%
COCCCNC(=O)c1ccc(N(C)S(C)(=O)=O)cc1 | >57 | 0%
CCOC(=O)C1CCN(S(=O)(=O)Cc2ccccc2)C1=O (configuration not stated) | >57 | 8%
COC(=O)c1cc(-c2ccc(OC)c(OC)c2)n[nH]1 | >57 | -13%
CCn1c(SCC(=O)Nc2nc(-c3ccc(C)cc3)cs2)nnc1-c1ccccc1O | u | u
CC(=O)N(CC(O)CN(C(C)=O)c1c(I)c(C(=O)NC[C@@H](O)CO)c(I)c(C(=O)NC[C@@H](O)CO)c1I)c1c(I)c(C(=O)NC[C@@H](O)CO)c(I)c(C(=O)NC[C@@H](O)CO)c1I | >57 | -15%[3.58 µM]
COC(=O)C(NC(=O)c1ccccc1)=C(C)C | >57 | -10%
COC(=O)[C@@]1(Cc2ccc(F)cc2)[C@H]2c3cc(C(=O)N(C)C)n(Cc4ccccc4)c3C[C@H]2CN1C(=O)c1ccccc1 | >57 | 1%
CC(C)CC(=O)Nc1ccc2oc(-c3ccncc3)nc2c1 | >57 | x
O=C(OCC(=O)N1CCN(C(=O)c2ccco2)CC1)c1ccccc1C(=O)c1ccccc1 | >57 | -2%
OC1c2ccccc2-c2nc3ccccc3cc21 (configuration not stated) | >57 | 16%
COC(=O)c1cc2ccccc2c(=O)s1 | >57 | 10%
O=C(c1ccccc1C(=O)N1CCN(c2ccc(F)cc2)CC1)N1CCN(c2ccc(F)cc2)CC1 | >57 | u
COc1ccc2cc(C(=O)NCc3ccco3)c(=O)oc2c1 | x | u
CCCCCCCCC(=O)NCc1cc(OC)c(O)cc1I | >57 | u
Cc1csc(NC(=O)c2ccco2)n1 | >57 | -2%
COc1cccc(OCC(O)CN2CCC(Cc3ccccc3)CC2)c1 (configuration not stated) | >57 | -26%
N#CCCn1cc(C(CC(=O)c2ccccc2)C(=O)O)c2ccccc21 (configuration not stated) | >57 | -9%
COc1ccc(-n2nc(C(=O)N3CCCCC3)c3ccccc3c2=O)cc1 | >57 | 4%
COc1cc(OC)c(Nc2cc(C)nc3nc(C)nn23)cc1Cl | >57 | 6%
COc1ccc2c(c1)[n+]([O-])c(/C(C)=N/NC(N)=S)c(C)[n+]2[O-] | >57 | 0%[8 µM]
COc1ccccc1NC1C=CS(=O)(=O)C1 (configuration not stated) | x | -4%
O=C(c1ccco1)N1CCC[C@@]2(CCN(c3ncccn3)C2)C1 | >57 | -2%
CC(C)N(C(=O)Cn1cnc2c(cnn2-c2ccccc2Cl)c1=O)C(C)C | >57 | -5%
Cc1ccccc1NC(=O)Cn1c(C)nc2ccc(NC(=O)C3CC3)cc2c1=O | >57 | -8%

Other entries
canonical_smiles | Prx2 Sm inh | LT uptake inh
COc1cc(NC(=O)c2ccccc2)cc(OC)c1 | >57 | x
O=C(CCC(=O)N1CCc2ccccc2C1)N1CCN(S(=O)(=O)c2ccccc2)CC1 | >57 | -1%
COC(=O)c1ccc(/C(O)=C(\C#N)c2nc3ccccc3s2)cc1 | >57 | 2%
CCOC(=O)c1c(C)n(C)c2ccc(OC(C)C(=O)OC)cc12 (configuration not stated) | >57 | -1%
COc1ccc(-c2nnc(-c3cccs3)o2)cc1OC | x | -1%
NS(=O)(=O)c1ccc(N=Nc2ccc(O)c(C(=O)O)c2)cc1 | >57 | u
CCc1nnc2sc(-c3ccc(NC(=O)c4ccco4)cc3)nn12 | >57 | 3%
CC(C)OC(=O)c1c(N)sc2c1CCCC2 | >57 | -10%
COc1ccccc1N1CCN(c2cc(N3CCCC3)nc(C)n2)CC1 | >57 | -33%
CC(C)c1nnc(NC(=O)CCN2C(=O)c3ccccc3C2=O)s1 | x | 3%
Cc1ccc2occ(CN3CCN(c4ccccc4)CC3)c(=O)c2c1 | x | -18%
CCOc1ccc(CN(Cc2ccco2)C(c2cccs2)c2nnnn2C(C)(C)C)cc1 (configuration not stated) | >57 | u
CN(C)c1ccc(-n2cc3c(=O)n(C)c(=O)n(C)c3c2)cc1 | >57 | u
C=C(CC1([C@@H](NP(=O)(c2ccccc2)c2ccccc2)[C@H]2C[C@@H]2CCN(C(=O)OCC)S(=O)(=O)c2ccc(C)cc2)CC1)c1ccccc1 | >57 | 3%
CCSC1=C(C#N)C(c2cccc(Br)c2)CC(=O)N1 (configuration not stated) | >57 | 11%
CCOc1ccc(OCC)c(NC(=O)CN2CCN(C(=O)c3ccco3)CC2)c1 | >57 | u
Cc1ccnc(NC(=O)C2CCN(S(=O)(=O)c3cccc4nonc34)CC2)c1 | >57 | -1%
CCOC(=O)c1c(C)c(C(=O)Nc2cc(F)ccc2F)c(C)n1C | >57 | -4%
COc1ccc(OC)c2[nH]c(=O)c(CCNC(=O)C(C)(C)C)cc12 | >57 | 14%
CC(C)=CCC/C(C)=C/CO/N=C1/[C@H]2O[C@@H]2[C@@H](O)[C@H]2[C@H]1CCn1c(=O)n(C)c(=O)n12 | x | -5%[8 µM]
CCc1c(C(C)O)oc2ccc3c(C)cc(=O)oc3c12 (configuration not stated) | x | -7%
COc1ccccc1NS(=O)(=O)c1ccc(Br)s1 | >57 | -6%
COc1cc(/C=C\c2ccc(OC)cc2OC)cc(OC)c1 | >57 | u
CC(=O)c1ccc(Cl)c(Cl)c1Cl | x | 7%
O=C1OCCC1Sc1nnc(-c2ccco2)o1 (configuration not stated) | 6.5* | -6%
CCCC/C=C/[C@@H](NP(=O)(c1ccccc1)c1ccccc1)c1ccccc1OC | x | u
CC(C)CNS(=O)(=O)c1ccc(S(=O)(=O)N2CCN(CCC#N)CC2)cc1 | >57 | -3%
COC(=O)c1cc(-c2ccc(Br)cc2)on1 | >57 | -16%
O=C(CCC(=O)c1cccs1)OCC(=O)N1CCN(C(=O)c2ccco2)CC1 | >57 | 15%
CCCCOc1ccc(OCCCC)c2c1NC1(N2)C(=O)N(C(C)=O)c2ccccc21 | x | 1%

Reprinted at random: 3 compounds from above.
canonical_smiles | Prx2 Sm inh | LT uptake inh
CCOC(=O)C1CCN(S(=O)(=O)Cc2ccccc2)C1=O (configuration not stated) | >57 | 8%
O=C(Nc1ccc(N2CCOCC2)cc1)Nc1ccc2nc(-c3ccco3)c(-c3ccco3)nc2c1 | >57 | u
CC(C)CC(=O)Nc1ccc2oc(-c3ccncc3)nc2c1 | >57 | x

Arranged by formula weight (ascending): some entries from above
canonical_smiles | Prx2 Sm inh | LT uptake inh
CCc1c(C(C)O)oc2ccc3c(C)cc(=O)oc3c12 (configuration not stated) | x | -7%
COC(=O)c1cc(-c2ccc(Br)cc2)on1 | >57 | -16%
O=C(CCC(=O)c1cccs1)OCC(=O)N1CCN(C(=O)c2ccco2)CC1 | >57 | 15%

(list continues)
canonical_smiles | Prx2 Sm inh | LT uptake inh
Cc1cc2c(c(=O)n1Cc1ccc3c(c1)OCO3)C(c1cccnc1)C(C#N)=C(N)O2 (configuration not stated) | >57 | -4%
CN1CCC(=C2c3ccccc3Sc3ccccc32)CC1 | >57 | u
Cn1nnnc1SCC(=O)NCc1ccco1 | >57 | 0%
CCOC(=O)Cn1c(=O)oc2cc(S(=O)(=O)N3CCn4c3nc3ccccc34)ccc21 | >57 | 3%
COCCCn1c(-c2ccsc2)nc2c1c(=O)[nH]c(=O)n2Cc1ccccc1 | >57 | -23%
Cc1ccc(-n2ncc3c(=O)[nH]c(SCC(=O)N4CCCc5ccccc54)nc32)cc1 | >57 | u
CCOC(=O)N1CCN(c2c(N3CCN(c4cccc(C(F)(F)F)c4)CC3)c(=O)c2=O)CC1 | >57 | 9%
Cc1cccc(CCNC(=O)CN(C)S(=O)(=O)c2ccc3c(c2)c(=O)n(C)c(=O)n3C)c1 | >57 | -10%
COc1cccc(Nc2ncc3ncc(=O)n(C)c3n2)c1 | >57 | -8%
O=C(Cn1ncc2c(=O)oc3ccccc3c21)Nc1nc2ccccc2s1 | >57 | u
CCn1c2ccccc2c2nnc(SCC(=O)Nc3ncccn3)nc21 | >57 | -5%
C(CCc1nnc2c(n1)CCCC2)Cc1nnc2c(n1)CCCC2 | >57 | u
O=C(c1ccsc1)N1CCN(C(=O)c2cccs2)CC1 | x | -2%
COc1ccccc1NC(=O)c1ccc(CN2CCOCC2)cc1 | >57 | -5%
ClCCOCCCl | x | 0%
CCOC(=O)c1ccc(NC(=O)Nc2ccc3c(c2)OCCO3)cc1 | >57 | u
Cn1nnc2c(NCc3ccco3)nccc21 | >57 | 0%
CCn1cc(C(=O)N2CC(C)CC(C)C2)c(=O)c2cc(S(=O)(=O)N3CCOCC3)ccc21 (configuration not stated) | x | -2%
Cn1c(=O)c2cn(-c3ccc4c(c3)OCCO4)cc2n(C)c1=O | >57 | 4%
O=C(c1cccc(N2C(=O)C3CC=CCC3C2=O)c1)N1CCN(c2ccccc2)CC1 (configuration not stated) | >57 | 0%
CCn1c(CC(=O)Nc2ccccc2F)nnc1SCC(=O)N1CCN(c2ccccc2)CC1 | >57 | -14%
COc1ccc(C(C)=O)c(OC(=O)c2ccc(OC)c(OC)c2)c1 | >57 | 5%
Cc1nnc2sc(-c3ccc(NC(=O)c4ccc(-c5ccc(Cl)cc5Cl)o4)cc3)nn12 | >57 | -5%
Cc1nc(C)c(C(=O)NCc2ccccc2Cl)o1 | >57 | 7%
Nc1ncnc2c1ncn2[C@@H]1O[C@@H](COP(=O)(O)OP(=O)(O)OP(=O)(O)OP(=O)(O)OC[C@@H]2O[C@@H](n3cnc4c(N)ncnc43)[C@@H](O)[C@H]2O)[C@H](O)[C@@H]1O | >57 | u
Nc1sccc1C(=O)c1ccc(Cl)cc1 | >57 | -9%
COc1cccc(-c2ccc3ncnc(N4CCN(C)CC4)c3c2)c1 | >57 | u
Cc1ccc(-c2nc3ncccn3c2NC2CCCC2)o1 | >57 | u
CCCCCCCNS(=O)(=O)c1cccc2c(Cl)cccc12 | >57 | u
COC(=O)c1ccc(NS(=O)(=O)c2ccc(OC)cc2)cc1 | >57 | 9%
Nc1ccc(Br)cc1 | x | 4%
CC(=O)c1ccc(NC(=O)C2CCCNC2=O)cc1 (configuration not stated) | >57 | 19%
CC1Cc2ccccc2N1C(=O)CSC1=NCCS1 (configuration not stated) | >57 | u
COc1cccc(-c2nc3n(n2)C(c2ccccc2Cl)C(C(N)=O)=C(C)N3)c1 (configuration not stated) | >57 | 1%
COc1nnc(-c2ccc(N3CCCCC3)c(N)c2)c2ccccc12 | >57 | -13%
CC(C)(C)n1nnnc1C(c1cccs1)N1CCCC2(CCCCC2)C1 (configuration not stated) | >57 | -18%
CCc1nnc(-n2nc(C)cc2-c2ccccc2)n1N | >57 | -5%
CCCCn1c(-c2ccsc2)nc2c1c(=O)[nH]c(=O)n2CCC | >57 | 4%
